YopH inh – YopH tyrosine phosphatase inhibitors, primary screen, biochemical, fluorescence Ex485/Em525; inhibition, %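 (about 10 µM by stock and volumes)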; AID 898, 2007; 0.16% of 140,000 active;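 active = inhibition of 50% or more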;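 note: controls were vehicle for no effect and minimum signal wells for full effect; inactives centre near -20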
Arbovirus inh – antivirals against arbovirus infection, primary screen, cell-based, full library, 10K replicate subset; arbovirus infection cell-based antiviral screen; inhibition, % at 10 µM; 0.37% of 200,000 active; AID 1251, 2008;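 active = inhibition from about 30%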;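 note: bluetongue infection of BSR cells; cell survival read as ATP light after 72 h; 0% = infected wells without compound and 100% = uninfected wells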
Mtb growth – M. tuberculosis H37Rv growth inhibitors, H37Rv strain (AID 1626); one-dose inhibition, % at 10 µM; IC50 in µM for titrated hits; M. tuberculosis H37Rv growth inhibition; higher % means a stronger effect; 0.95% of 220,000 active;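 active = confirmed in a dose series; inconclusive = inhibition above 80% but not taken into the dose series; inactive = below 80% or under 30% at every dose of the series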;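 note: bacteria incubated seven days before Alamar blue readout; 0% = bacteria only wells and 100% = bacteria with antibiotic wells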
Mtb bLac sens – beta-lactam sensitization of Mtb H37Rv, H37Rv; M. tuberculosis H37Rv growth with meropenem, percent inhibition; hits of this screen are not shown here; inhibition, % at 25 µM; 0.27% of 330,000 active; AID 434955, 2010;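 active = about 74% or more and at least 40 points above the plate without the antibiotic, then above 30% in a dose series; inconclusive = first-round hits that could not be retested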;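 note: growth measured after seven days incubation then overnight dye step; 0% = bacteria only wells and 100% = bacteria with antibiotic; twin plates without the antibiotic show which effects depend on it; some results filed as inactive read as strong as hits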
RecA splice inh – Mtb RecA intein splicing inhibitors, primary screen, biochemical, fluorescence, HTS | Protein RecA (Mycobacterium tuberculosis (strain ATCC 25618 / H37Rv)), P9WHJ3 | cell-free RecA intein splicing | inhibition, %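 (about 9 µM by stock and volumes)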 | 0.75% of 290,000 active; in the data active = inhibition above about 30%; inconclusive = no clear call, values can overlap the other calls;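 note: 0% = vehicle wells and 100% = reference inhibitor control wells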
Target sequence (P9WHJ3 whole entry, looked up, canonical isoform): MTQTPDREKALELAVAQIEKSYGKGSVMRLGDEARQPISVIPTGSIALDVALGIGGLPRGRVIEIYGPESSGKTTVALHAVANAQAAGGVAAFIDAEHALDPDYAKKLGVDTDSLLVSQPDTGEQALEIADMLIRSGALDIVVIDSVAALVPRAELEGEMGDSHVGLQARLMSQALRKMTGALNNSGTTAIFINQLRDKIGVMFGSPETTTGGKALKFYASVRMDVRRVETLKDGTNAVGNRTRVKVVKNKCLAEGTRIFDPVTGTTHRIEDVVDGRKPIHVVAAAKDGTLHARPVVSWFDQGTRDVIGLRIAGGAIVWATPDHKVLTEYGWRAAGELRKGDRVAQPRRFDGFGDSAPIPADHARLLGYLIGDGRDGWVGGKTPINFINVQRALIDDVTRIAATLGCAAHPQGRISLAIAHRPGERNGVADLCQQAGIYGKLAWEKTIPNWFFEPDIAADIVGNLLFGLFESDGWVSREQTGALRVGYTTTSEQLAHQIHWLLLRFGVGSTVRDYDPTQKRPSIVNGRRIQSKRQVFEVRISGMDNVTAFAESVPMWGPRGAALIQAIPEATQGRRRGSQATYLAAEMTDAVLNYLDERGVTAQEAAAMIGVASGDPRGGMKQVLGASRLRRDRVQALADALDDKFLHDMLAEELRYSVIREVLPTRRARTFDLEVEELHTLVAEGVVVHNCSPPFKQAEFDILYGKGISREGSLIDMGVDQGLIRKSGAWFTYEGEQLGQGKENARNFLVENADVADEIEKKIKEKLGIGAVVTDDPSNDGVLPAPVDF
Arbovirus inh repeat – second read-out of Arbovirus inh, no call of its own (marks repeat the call); inhibition, %; measured here: 10K subset replicate screen; many hits read low in the repeat;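 first of two repeat runs on a subset; 0% = infected and 100% = uninfected wells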
* = called active by the depositor; ? = inconclusive; . = not tested or not shown. These rows are one share of the data. The share of hits here may be higher or lower than overall.

SMILES	YopH inh	Arbovirus inh	Mtb growth	Mtb bLac sens	RecA splice inh	others
CCc1ccccc1NC(=O)CSC1=C(C#N)C(c2ccc(O)c(OC)c2)C2=C(CCCC2=O)N1 (stereo not drawn)	-5	-27	1%	-13	-0.3
Cc1cc(OC(C)C(=O)N(Cc2ccco2)C2CCS(=O)(=O)C2)ccc1Cl (stereo not drawn)	.	.	.	-5	-1.8
Cc1ccc2c(CC(=O)NNC(=O)c3ccccc3)coc2c1	-8	7	0%	-4	5.5
Cc1[nH]c(=O)[nH]c(=O)c1NS(=O)(=O)c1ccc2c(c1)CCCC2	0	0	-7%	0	-0.5
COCCn1nnnc1C(c1cccs1)N1CCN2CCCC2C1 (stereo not drawn)	.	9	-9%	-6	-0.3
Cc1ccc(NS(=O)(=O)c2cc(C(=O)NCc3ccncc3)ccc2C)cc1	.	.	.	-4	-0.2
CC(=O)Nc1ccc(S(=O)(=O)Nc2ncccn2)cc1	-31	-2	-10%	-11	2.7
CC1(OC(=O)c2cccs2)C(=O)C=C2C=C(c3ccc(C#N)cc3)OC=C2C1=O (stereo not drawn)	.	.	-4%	-2	0.2
COC(=O)CN1C(=O)[C@H]2[C@@H](c3ccc(C)o3)N3C(=O)CN(Cc4ccccn4)C(=O)[C@@]3(C)[C@H]2C1=O	.	.	.	4	0.2
CC1CCN(S(=O)(=O)c2cn(CC(=O)N3CCN(c4cccc(C(F)(F)F)c4)CC3)cn2)CC1	.	.	.	4	-1.0
COc1cc(CNCCNCC(C)O)ccc1OCc1ccc(Cl)nc1 (stereo not drawn)	-11	3	-7%	8	9.5
COc1ccccc1NC(=S)NC(=O)c1ccc(Cn2cc(Br)cn2)cc1	-16	-3	4%	1	1.3
CN(CCO)c1nc(N)c2c(N)nc3c(c2c1C#N)CC(=O)N3Cc1cccs1	.	2	1%	1	-37
CCn1nc(C(=O)Nc2nc3ccc(C)cc3s2)c2ccccc2c1=O	-5	1	-4%	-3	-0.2
CCN(CC)C(=O)C1CCCN(C/C=C/c2ccccc2)C1 (stereo not drawn)	-36	4	-7%	-5	-0.5	Arbovirus inh repeat=0
COc1ccc(C(=O)NC2CC2)cc1OC1CCN(Cc2cc(C)cc(C)c2)CC1	.	.	.	?	2.2
CCC1(c2ccc(F)cc2)NC(=O)NC1=O (stereo not drawn)	.	.	.	6	0.0
COCCN1CC(O)=C(c2nc3ccccc3c(=O)[nH]2)C1=N	-20	7	-12%	-9	-0.9
CC(=O)c1ccc(OCCn2cnc3ccccc32)cc1	-7	14	7%	3	0.4
COc1cc(-c2noc(C)c2C#CC2(O)CCCCC2)cc(OC)c1OC	.	.	.	8	5.9
CN1CCN(NS(=O)(=O)c2ccc(Cl)cc2)CC1	.	.	.	-4	-3.6
CCN(CC(=O)Nc1cc(C)nn1-c1nc(C)cc(C)n1)Cc1ccccc1	17	-19	.	96	3.5
Cc1cccc(C(C)C)c1NC(=O)c1cccnc1	-26	6	2%	0	-2.7
COC(=O)C1=CN(c2ccc(F)cc2)C=C(C(=O)OC)C1c1ccc(O)cc1	.	.	.	-3	0.7
O=C(NCc1nc(-c2ccccc2)no1)c1cccs1	5	-1	5%	6	-0.6
COc1ccc(-c2cn3cccnc3n2)cc1NC(=O)c1cc(OC)c(OC)c(OC)c1	.	-15	1%	-2	3.1
COc1cc(OC)c(C2N(c3ccccn3)C(=O)C3CCCN32)cc1OC (stereo not drawn)	-11	5	-12%	-3	-2.2
CCOc1c([N+](=O)[O-])cc2c(C)c(C(=O)N3CCN(C)CC3)oc2c1OCC	.	.	.	-2	-3.1
CC(C)(C)OC(=O)N/N=C/c1cc(N=Nc2ccccc2)ccc1O	-28	-13	16%	56	0.7
CC1CCc2nn(CC(=O)N3CCc4ccccc43)cc2C1 (stereo not drawn)	-39	9	1%	2	2.5
O=C(NCc1nc(-c2ccccc2)no1)c1ccc2c(c1)OCO2	-55	5	14%	7	2.5
CCc1ccc2nc(Nc3nc(COC)cc(=O)[nH]3)nc(C)c2c1	-17	0	-1%	0	0.9
CN(C)c1cc[n+](CC(=O)Nc2ccc(Cl)c([N+](=O)[O-])c2)cc1	.	.	.	4	-2.6
COC(=O)c1ccccc1NC(=O)COC(=O)CSCC(=O)N1CCOCC1	3	4	3%	10	-0.1
CCCc1cc(C(=O)N(C)CC(=O)Nc2ccc(OCC)c(OCC)c2)sc1C	.	.	.	-10	0.0
CCOc1ccc(Br)cc1S(=O)(=O)NCc1ccc(S(N)(=O)=O)cc1	.	-2	-5%	-2	-5.4
COc1cc(NS(=O)(=O)c2ccc(NC(=S)NC(=O)/C=C/c3ccco3)cc2)ncn1	.	9	-3%	.	0.9
O=C1NCCCc2c1oc1cc(Br)c(O)c(Br)c21	-18	5	-9%	-4	-13
CCc1nn(CC(=O)N2CCC3(CC2)OCCO3)c(=O)c2cccn12	.	.	.	2	-1.8
O=C(CSc1nnc(-c2cccs2)o1)N1CCOCC1	8	1	2%	.	-1.8
COc1ccc2c(C)c(C(=O)N3CCN(Cc4ccccc4)CC3)oc2c1	.	.	.	1	6.4
CCCc1c(O)c2ccccc2n(-c2ccccc2)c1=O	-36	15	12%	19	1.5
CCOc1ccc(N2CC(C(=O)NC3CCCC3)CC2=O)cc1 (stereo not drawn)	.	.	.	-18	-3.2
Cc1ccc(CN2CCN(Cc3ccccc3)CC2)cc1	.	2	-9%	-5	-0.2
O=C(CN1CCCCCC1)Nc1ccc(S(=O)(=O)N2CCOCC2)cc1	.	3	-9%	8	1.9
Cc1cc(N2CCOCC2)c(F)cc1C(=O)c1ccccc1	-153	-5	-3%	0	1.8
CC(C)c1nnc(SCC(=O)NCc2ccc3c(c2)OCO3)n1C	0	1	1%	-3	-1.6
COc1ccc(NCC(=O)Nc2ccccc2C#N)cc1Cl	-12	-1	98µM*	98	-2.4
O=C(O)c1cc(S(=O)(=O)N(Cc2ccccc2)c2ccccc2)ccc1Cl	.	.	.	-7	2.6
Cc1ccc(C(=O)CSc2nnc(-c3ccccc3)o2)cc1	-16	0	2%	-3	-0.2
COC(=O)c1sccc1NC(=O)CC1C(=O)NCCN1C(=O)Nc1cc(Cl)ccc1OC (stereo not drawn)	.	.	4%	0	0.3
CN1CCc2c(sc3c2c(=O)n(-c2ccccc2)c2nnc(SCc4ccc(Cl)cc4)n32)C1	-30	-8	-2%	4	6.3
O=c1oc(-c2ccc(Cl)c(Cl)c2)nn1-c1ccc(C(F)(F)F)cn1	.	.	-6%	5	0.8
COc1ccc(N(CC(=O)N2CCc3ccccc3C2)S(C)(=O)=O)cc1	-11	3	-4%	9	-0.1
CCC(C)(C)NC(=O)CN(C(=O)c1snc(C(N)=O)c1N)c1ccc(OC)c(OC)c1	-19	4	-4%	-1	.
CCOC(=O)C1=C(c2ccccc2)O/C(=C(/C#N)C(F)(F)F)S1	-2	-37	6%	68	42*
COc1ccccc1NC(=O)CSc1nnc(CNC(=O)COc2ccc(Cl)cc2)o1	-17	1	-2%	0	2.4
Cc1ccccc1N(CC(=O)NCC1CCCO1)C(=O)CCC(=O)Nc1nccs1 (stereo not drawn)	.	.	.	3	1.7
Cc1cccc(C)c1OCc1nnc(SCC(=O)NCCc2ccccc2)o1	15	-9	60%	81	2.0
O=c1cc(CN2CCN(Cc3ccccc3)CC2)c2cc(O)ccc2o1	.	.	.	-10	-1.6

Fetched one by one from the entries so far (four):
SMILES	YopH inh	Arbovirus inh	Mtb growth	Mtb bLac sens	RecA splice inh	others
CCc1ccc2nc(Nc3nc(COC)cc(=O)[nH]3)nc(C)c2c1	-17	0	-1%	0	0.9
CCOc1ccc(Br)cc1S(=O)(=O)NCc1ccc(S(N)(=O)=O)cc1	.	-2	-5%	-2	-5.4
COc1cc(OC)c(C2N(c3ccccn3)C(=O)C3CCCN32)cc1OC (stereo not drawn)	-11	5	-12%	-3	-2.2
O=C1NCCCc2c1oc1cc(Br)c(O)c(Br)c21	-18	5	-9%	-4	-13

(list continues)
SMILES	YopH inh	Arbovirus inh	Mtb growth	Mtb bLac sens	RecA splice inh	others
CNc1nc(N)c([N+](=O)[O-])c(NC2CCCCC2)n1	.	.	.	7	-4.1
COc1cccc(CNc2ccc([N+](=O)[O-])c(NCC(=O)O)n2)c1	.	1	0%	-11	4.7
Cc1noc(C)c1S(=O)(=O)N1CCCC(C(=O)NCCc2ccc(Cl)cc2)C1 (stereo not drawn)	21	-5	-4%	-5	2.5
CC(C)Cn1cc(C(=O)N2CCOCC2)c2c3ccccc3n(C)c2c1=O	-35	3	-9%	-3	.
CCN1CCN(Cc2ccc(NC(=O)c3ccc(C)c(NC(=O)c4cccc5[nH]ccc45)c3)cc2C(F)(F)F)CC1	.	.	-5%	38	5.1
COc1ccc(Cc2nnc(SCC(=O)NCc3ccco3)o2)cc1	-25	-1	21%	90	2.2
CCOCCc1nnc(NC(=O)CS(=O)(=O)Cc2ccccc2)s1	.	.	.	2	-0.1
O=C(CCc1ccccc1)Nc1nnc(-c2ccccn2)o1	-1	-10	-5%	-1	-0.8
O=C(CSc1ncnc2c1nnn2Cc1ccccc1F)N1CCN(c2ccccc2)CC1	10	8	-1%	.	43*
CCOC(=O)NC(=O)/C(C#N)=C\c1ccccc1	.	-1	-5%	1	-0.1
CC(=O)c1ccc(-n2nnnc2SCC(=O)N2CCN(C(=O)c3ccco3)CC2)cc1	-6	4	13%	-10	-2.1
O=C(O)CSc1nnc(-c2ccc3c(c2)OCO3)n1-c1ccccc1	.	20	9%	-4	-1.5
O=C(CN1CCN(c2ccc([N+](=O)[O-])cc2)CC1)Nc1ccccn1	-29	9	5%	13	3.5
CCc1noc(C)c1C(=O)Nc1ccc(F)c(F)c1F	.	.	.	-2	-1.0
COC(=O)c1nnn(CC(=O)NC(=O)Nc2ccccc2)c1C(=O)OC	-45	-1	-3%	-6	21
O=C(CCN1C(=O)c2cccc3cccc(c23)C1=O)N1CCOCC1	.	20	.	-5	-0.9
CCOC(=O)N1CCC(NC(=O)c2ccc3nc(N4CCOCC4)sc3c2)CC1	-23	-1	-5%	.	-0.8
CCS(=O)(=O)c1nc(S(=O)(=O)c2ccc(C)cc2)c(N2CCC(C)CC2)s1	.	.	.	40	4.8
O=Cc1ccccc1OCCOc1ccccc1C=O	-17	6	9%	-7	-1.4
CCN(CC)c1nc(-c2cccc(OC)c2O)nc2ccccc12	-41	-10	-1%	12	-1.2
CN(CCCNC(=O)c1nn(C)c2c1CS(=O)(=O)c1ccccc1-2)Cc1ccccc1	.	.	.	-3	-0.2
COc1cc(Cl)c(S(=O)(=O)n2cnc(C)c2)cc1Cl	-23	8	-1%	3	1.8	Arbovirus inh repeat=-2
COCc1[nH]nc2c1C(C1C=CCCC1)C(C#N)=C(N)O2 (stereo not drawn)	-9	-10	-5%	-5	-0.3
COc1ccc(-c2cc3ccccc3n2CC(O)CNCCO)cc1 (stereo not drawn)	-16	17	8%	-8	0.6
CCCC(=O)N1CCN(S(=O)(=O)c2cc(Cl)ccc2OC)CC1	-39	5	-2%	-4	0.2
CCOC(=O)Cn1c(=NC(=O)C(C)(C)C)sc2cc([N+](=O)[O-])ccc21	-10	-4	3%	12	-1.2
CN1CCN(S(=O)(=O)c2cc([N+](=O)[O-])ccc2Cl)CC1	.	-9	.	9	-1.6
Cc1ccc(OCC(=O)N2CCN(C(=O)c3cccs3)CC2)cc1	-15	4	1%	-9	-0.6
Cn1c(SCc2cccc(Br)c2)nnc1-c1ccncc1	.	.	.	-10	-2.5
CCOc1cc(C(=S)N2CCOCC2)ccc1OS(=O)(=O)c1ccccc1[N+](=O)[O-]	-21	10	7%	-7	-4.1
COc1ccc(-c2cc(C(=O)O)c3c(C)nn(-c4ccccn4)c3n2)cc1	-9	-1	-2%	8	-5.0
FC(F)(F)c1cccc(NC(=S)NCCN2CCOCC2)c1	-24	-2	1%	2	2.2
CCOc1ccc(Oc2c(/C=N/NC(=O)C3CC3)c(C)nn2-c2ccccc2)cc1	11	-1	14%	4	-2.2
C=CCn1c(SCC(=O)OCC)nc2cc(C(=O)NCc3ccco3)ccc2c1=O	-26	-1	.	-7	0.3
Cc1cccc(NC(=O)CSc2nc(C)c(Cc3ccccc3)c(=O)[nH]2)c1	.	-20	3%	-2	0.6
CCCc1cc(C(=O)N2CCCC(N3CCN(c4ccc(F)cc4)CC3)C2)no1 (stereo not drawn)	.	.	.	7	-3.8

Among those listed so far, 2 have a tert-butyl group:
SMILES	YopH inh	Arbovirus inh	Mtb growth	Mtb bLac sens	RecA splice inh	others
CC(C)(C)OC(=O)N/N=C/c1cc(N=Nc2ccccc2)ccc1O	-28	-13	16%	56	0.7
CCOC(=O)Cn1c(=NC(=O)C(C)(C)C)sc2cc([N+](=O)[O-])ccc21	-10	-4	3%	12	-1.2

Screening results deposited in PubChem by several laboratories.
